# VDR inhibitor: Inhibitors of the vitamin D receptor (VDR): qHTS; Vitamin D3 receptor (Homo sapiens), P11473; VDR-SRC2-3 peptide fluorescence polarization, 2 h; Potency, µM, for the others: max response, negative = inhibition, most hits filed as inhibitors; 400,000 tested, 0.93% active; AID 504847, 2011; active means well fitted inhibition curve with a large enough effect; inconclusive means small, poorly fitted or top-dose-only effect, or another doubt; inactive means no such curve, though single readings can be large or run the other way; further: series mostly up to about 120 µM
# Target sequence (P11473 whole entry, looked up): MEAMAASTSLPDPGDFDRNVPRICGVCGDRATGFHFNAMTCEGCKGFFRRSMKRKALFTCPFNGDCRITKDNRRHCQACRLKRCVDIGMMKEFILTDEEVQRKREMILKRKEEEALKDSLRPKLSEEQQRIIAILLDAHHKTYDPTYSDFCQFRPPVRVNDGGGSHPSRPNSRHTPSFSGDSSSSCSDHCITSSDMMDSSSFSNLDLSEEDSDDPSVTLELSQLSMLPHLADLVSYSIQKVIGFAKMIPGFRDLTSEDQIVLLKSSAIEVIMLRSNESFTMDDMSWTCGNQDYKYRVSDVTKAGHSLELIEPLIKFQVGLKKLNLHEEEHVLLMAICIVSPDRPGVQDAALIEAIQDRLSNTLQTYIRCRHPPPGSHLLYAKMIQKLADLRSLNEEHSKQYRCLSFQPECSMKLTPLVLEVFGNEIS
#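 FP read-out; VDR + SRC2-3 coactivator peptide; 23 nl compound by pintool; 2 h RT incubation; reagents held at 4 deg C, protected from light.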
# * marks the source's active call; other numbers are inactive results; ? = inconclusive; & = joins results of further samples. On the % scale 0 is the no-effect control and ±100 the full control effect; potency means the concentration at half of the fitted maximal effect.
VDR inhibitor	compound
-9.9%	O=C(c1ccco1)N1CCN(S(=O)(=O)c2cccc(C(F)(F)F)c2)CC1
-17.3%	CC(=O)c1ccc(NC(=O)CCc2c(C)nc3cc(-c4ccc(Cl)cc4)nn3c2C)cc1
-16.9%	Cc1nnc(N2CCc3ccccc3C2)[nH]c1=O
-18.3%	O=C(O)c1cccc(NC(=O)C2C3C=CC(C3)C2C(=O)OCC(F)(F)C(F)F)c1 (configuration not stated)
-9.6%	COc1ccc(C2NC(c3ccc(OC)cc3)C([N+](=O)[O-])C(C)(C)C2[N+](=O)[O-])cc1 (configuration not stated)
8.2%	CCOC(=O)C1CN(S(=O)(=O)c2ccc(OC)cc2)c2cc(Cl)ccc2O1 (configuration not stated)
-2.3%	O=S(=O)(c1ccccc1)N(CC(O)Cn1c2ccccc2c2ccccc21)c1ccccc1 (configuration not stated)
3.2%	N#CCSc1nc2sc3c(c2c(=O)n1C1CCCCC1)CCCC3
4.1%	Cc1cccc(-n2c(C)nc3sccc3c2=O)c1
-10.1%	CSc1nc2n(n1)C(C)C1=C(CCCC1=O)N2 (configuration not stated)
16.8%	O=C(CSc1nnc2c(n1)[nH]c1ccccc12)N1CCCCC1
-3.0%	COC(=O)c1cn(Cc2cccc(C)c2)nn1
0.2%	O=C(Nc1ccc(OCC(=O)N2CCOCC2)cc1)c1cncc(Br)c1
-10.2%	CCc1ccc(OCCSc2nc3ccccc3n2CC(=O)O)cc1
2.3%	CCOc1ccc(C2CC(=O)c3c([nH]c(C(=O)OC4CCC(C)CC4)c3C)C2)cc1 (configuration not stated)
-15.6%	N#CCC(=O)NCCCc1ccccc1
4.0%	Cc1ccc2nc(SCC(=O)NCC3CCCO3)c(C#N)cc2c1 (configuration not stated)
-5.6%&2.2%	COc1ccc(S(=O)Cc2ccc(C(=O)N3CCN(c4cccc(C)c4C)CC3)o2)cc1 (configuration not stated)
-19.0%	COc1ccc(OCc2cc(C(=O)N3CCCN(C(C)=O)CC3)no2)c(Cl)c1
-12.6%	Cn1nnc(NC(=O)CSc2ncn[nH]2)n1
23.4%	CNC(=O)/C(C#N)=C/c1cn(CC(=O)OC)c2ccccc12
-15.9%	COc1ccc(Cl)cc1NC(=O)CSc1nncn1-c1cccnc1
2.3%	O=S(=O)(Nc1ccc(F)c(C(F)(F)F)c1)c1ccc(N2CCCCS2(=O)=O)cc1
9.7%	CC1CCCC(C)N1S(=O)(=O)c1ccc(Cl)cc1 (configuration not stated)
-12.0%	Cn1c(=O)c2c(ncn2CC(=O)N/N=C/C=C/c2ccccc2)n(C)c1=O
6.8%	COC(=O)c1cc(OC)c(OC)cc1NC(=O)CN1CCCCC1
6.6%	O=C(NCCc1ccccc1)c1cnc2sc(N3CCCCC3)nn2c1=O
-14.5%	Cc1ccc(NC(=O)C2CCN(S(=O)(=O)c3c(C)noc3/C=C/c3cccs3)CC2)cc1F
9.2%	Cc1ccc(OCC(=O)NCC(=O)OCc2cc(=O)n3nc(C)sc3n2)cc1
?	Cc1nc2ccccc2n2c(-c3ccccc3)c3c(=O)n(C)c(=O)n(C)c3c12
-3.4%	CC(C)Oc1cccc(C(=O)Nc2ccc(-c3nc4cc(Cl)cc(Cl)c4o3)cc2)c1
-15.6%	O=[N+]([O-])c1cccc(-c2c[n+]3c(n2-c2ccccc2)SCC3)c1
9.6%	O=C(CCCCCCC(=O)Nc1ccccc1)NO
-4.3%	COc1ccc(S(=O)(=O)N[C@@H](C)C(=O)OCC(=O)Nc2cc3oc4ccccc4c3cc2OC)cc1
-3.3%	NC(=O)c1cc2ccccc2oc1=NCc1ccccc1
4.9%	Cc1ccc2nsnc2c1S(=O)(=O)N(Cc1cc2cccc(C)c2[nH]c1=O)CC1CCCO1 (configuration not stated)
19.7%	CCOC(=O)Nc1nnc(Cc2ccc(Cl)c(Cl)c2)s1
6.3%	N#Cc1c(N)nc2c(c1-c1cccc(O)c1)CCCCCC2
1.9%	CCOC(=O)C1CCN(C(=O)c2cc3c(=O)n4ccccc4nc3s2)CC1
0.1%	Cc1ccc(C)c(C(=O)c2c(C)nc3sccn23)c1
16.5%	CCOC(=O)c1ccc(NC(=O)Cn2ncc3c(C)n(Cc4ccccc4F)c(C)c3c2=O)cc1
1.8%	O=C(Cc1ccc(F)cc1)N(c1ccc(F)cc1)C1C=CS(=O)(=O)C1 (configuration not stated)
-0.9%	CCOC(=O)Cn1ccc(O)c(Cc2ccc(Cl)cc2Cl)c1=O
0.7%	CCOC(=O)C1(CCc2ccccc2)CCN(C(=O)C2CCOCC2)CC1
14.3%	COc1cc([N+](=O)[O-])cc(/C=N/NC(=O)C(O)(c2ccccc2)c2ccccc2)c1O
13.3%	CCN1CCN(c2nc(N)c([N+](=O)[O-])c(Nc3cccc(C)c3)n2)CC1
13.3%	CCN(C(=O)CSc1ncn[nH]1)c1cccc2ccccc12
0.8%	COc1ccc2c(c1)[C@H]1[C@H](CO2)[C@H](c2ccccc2)[C@]2(C)C(=O)Nc3cc(Cl)ccc3C(=O)N12
5.6%	Cc1ccc(CNC(=O)c2sc3ncnc(N(C)C4CCCCC4)c3c2C)cc1
-15.0%	Cn1cc(Cl)c(C(=O)NNC(=S)Nc2cccc(Cl)c2)n1
-10.0%	C#CCn1cc(/C=N/NC(=O)c2cc3ccccc3o2)c2ccccc21
4.7%	CCCCC(=O)Nc1ccc2c(c1)nc1n2CCN(CCOC)C1
-0.9%	CN(C)c1nc(SCc2ccccc2Cl)nc2c1CCCC2
8.7%	CN1CCN(C2CC(=O)N(Cc3ccc(N4CCCC4=O)cc3)C2=O)CC1 (configuration not stated)
-4.5%	O=C(c1cc(Cl)nc2ccccc12)N(Cc1nnc(-c2ccccc2Cl)o1)C1CC1
-19.2%	CC(=O)CCc1oc2ccc([N+](=O)[O-])cc2c1-c1ccc(C)o1
-7.9%	COc1ccc(OC)c(NC(=O)Nc2cnccn2)c1
-5.3%	O=C(c1nnc(-c2ccccc2)o1)C1CC1
-16.5%	COc1ccc(CC(=O)N(C)CC(=O)Nc2ccccc2C(F)(F)F)cc1S(=O)(=O)N1CCOCC1
0.2%	Cc1ccc2cc(CN(C(=O)c3cccs3)c3ccccc3)c(=O)[nH]c2c1

# More records.
VDR inhibitor	compound
3.3%	O=C(COC(=O)CCC1CCCC1)NCc1ccc(Cl)cc1
-5.3%&-10.5%	Cc1ccc2ncc(S(=O)(=O)c3ccccc3)c(N3CCCCC3C)c2c1 (configuration not stated)
13.2%	O=C1CCC(C(=O)Nc2cccc(S(=O)(=O)N3CCOCC3)c2)N1 (configuration not stated)
11.1%	COc1ccc(C(=O)N2CCN(c3ccc([N+](=O)[O-])c(NCCc4ccc(OC)c(OC)c4)c3)CC2)cc1
-28.8%	CN(C)c1ccc(N=Cc2nc(-c3ccccc3)oc2OC(=O)c2cccc(Cl)c2)cc1
-7.0%	Cc1onc(-c2ccccc2Cl)c1C(=O)N1CCCCCC1
-3.7%	O=C(CC(=O)Nc1ccc(F)cc1)Nc1ccc(F)cc1
-17.9%	Cc1ccc(O)c(NC(=O)c2ccccc2-c2ccccc2C(=O)O)c1
8.3%	O=c1cc(CSc2nnnn2-c2ccc(O)cc2)nc2sccn12
7.8%	CCC1CCCCN1C(=O)c1ccc2c(c1)N(Cc1cccc(Cl)c1)C(=O)c1ccccc1S2(=O)=O (configuration not stated)
12.0%	CN(C)c1ccc(CNC(=O)CCCN2C(=O)CCn3nc(-c4cccn4C)cc32)cc1
-18.7%	Cc1c(N=C/C=C2\N(C)c3ccccc3C2(C)C)c(=O)n(-c2ccccc2)n1C
4.0%	COc1cccc(NC(=O)CN(C)C(=O)c2cccc(NS(=O)(=O)c3ccc(Br)cc3)c2)c1
5.6%	O=C(NCc1ccccc1)C1(c2cccc(F)c2)CCCC1
-2.5%	COc1ccc(C(=O)c2ccc(Cl)cc2)c(OC)c1OC
11.7%	COc1ccc(-c2noc(CSc3nnc(-c4ccncc4)n3-c3cccc(C)c3)n2)cc1OC
-8.6%	Cc1cc(C)c2cc(C#N)c(N3CCCN(C(=O)c4cnccn4)CC3)nc2c1
0.2%	Cc1cc(C(=O)N2CCCC(C(=O)c3ccc4ccccc4c3)C2)n(C)n1 (configuration not stated)
-0.2%	O=C(Nc1cccc(S(=O)(=O)N2CCCC2)c1)c1cc(S(=O)(=O)N2CCOCC2)ccc1F
-7.9%	C[C@@H]1CCC[C@]2(O[C@@H](CCO)C[C@H](O)[C@H]2O)O1
-11.4%	c1ccc2oc(-c3[nH]ncc3CN3CCSCC3)cc2c1
15.4%	O=C(CN1C2CCCC1CC(NC(=O)c1ccco1)C2)Nc1ccccc1 (configuration not stated)
3.1%	CCOC(=O)c1cc(-c2ccccc2)sc1NC(=O)C(C)Sc1nnnn1C (configuration not stated)
-12.5%	COc1ccc(/C=C(\NC(=O)/C=C/c2ccco2)C(=O)NCCc2nc3ccccc3[nH]2)cc1
-13.8%	CC(C)c1cc(C(C)C)n2nc(N)nc2n1
6.4%	CC1CCN(S(=O)(=O)c2cccc(C(=O)Nc3ccccc3)c2)CC1
-9.6%	COc1cccc(C2(c3cccc(OC)c3)CC2C(=O)Nc2ccc(F)cc2)c1 (configuration not stated)
-1.7%	CC(C)(C)C(=O)CSc1nc2ccccc2o1
5.3%	CN(C(=O)COC(=O)c1ccc2ccccc2n1)c1ccccc1
0.8%&-3.8%	Nc1nc(NCCc2ccccc2)c2[nH]cnc2n1

# An excerpt from above in order of the VDR inhibitor value, high to low:
SMILES | VDR inhibitor
CC1CCN(S(=O)(=O)c2cccc(C(=O)Nc3ccccc3)c2)CC1 | 6.4%
O=C(NCc1ccccc1)C1(c2cccc(F)c2)CCCC1 | 5.6%
Cc1ccc2cc(CN(C(=O)c3cccs3)c3ccccc3)c(=O)[nH]c2c1 | 0.2%
CC(C)(C)C(=O)CSc1nc2ccccc2o1 | -1.7%
COc1ccc(S(=O)(=O)N[C@@H](C)C(=O)OCC(=O)Nc2cc3oc4ccccc4c3cc2OC)cc1 | -4.3%
Cc1onc(-c2ccccc2Cl)c1C(=O)N1CCCCCC1 | -7.0%

# (next part)
VDR inhibitor	compound
-16.4%	Cc1ccc(C2(CCNCc3ccco3)CCOC(C(C)C)C2)cc1 (configuration not stated)
-19.5%	Cc1cc2nc3c(nc2cc1C)C(O)=C3O
-7.1%	CC(C)C(=O)Nc1nnc(CCc2ccccc2)s1
-1.8%	CC(=O)NCCNc1nc(-c2ccc(N(C)C)cc2)nc2ccccc12
11.5%	CC1CCCC(C)N1CCCNC(=O)c1nn(C)c2c1CSc1ccccc1-2 (configuration not stated)
-0.5%	COc1cc(/C=N/n2cnc3c(sc4nc(C)cc(C)c43)c2=O)ccc1O
-8.9%	Cc1ccc(Oc2c(F)c(F)nc(N3CCCC3)c2F)cc1
?	CCOC(=O)N1CCN(C(=O)c2ccc(CS(=O)(=O)c3ccc(OC)cc3)o2)CC1
-2.8%	Cc1cc(N2CCN(C)CC2)nc2ccc(NC(=O)c3cccnc3Cl)cc12
3.7%	CCN(CC)CCNC(=O)CS(=O)Cc1nc(-c2ccccc2Cl)oc1C (configuration not stated)
-0.9%	COc1ccc(S(=O)(=O)N2CCCC2CNC(=O)C(=O)NCc2ccco2)cc1 (configuration not stated)
10.5%	O=C(NCc1ccccc1F)c1ccncc1
2.5%	CCN(CC)S(=O)(=O)c1cccc2nsnc12
-24.1%	COCCn1c(=NC(=O)CSCC(=O)N2CCOCC2)sc2cc(C)ccc21
-24.9%	CCc1ccccc1N1CN(Cc2cccnc2)CNC1=S
-5.3%	CCCCNc1c(-c2ccc(SC(C)CC)cc2)nc2cnccn12 (configuration not stated)
0.1%	O=C(Nc1cc(F)ccc1F)C1CCN(S(=O)(=O)c2cccc3nonc23)CC1
-8.3%	COc1ccc(CCNC(=O)CNCCc2ccc(F)cc2)cc1
-4.2%	C#CCNC(=O)C1=C[C@@H](c2csc3ccccc23)C[C@@H](OCc2ccc(CO)cc2)O1
9.3%	COCCCNC(=S)N/N=C/c1ccc(O)cc1
-12.4%	COc1ccccc1C(=O)NC(=O)COC(=O)Cn1cnc2c1c(=O)n(C)c(=O)n2C
-11.3%	COc1ccc(NC(=O)CSc2ncnc3c2cnn3Cc2ccccc2)cc1
13.6%	C=CCNC(=O)/C(C#N)=C/c1ccc(C(=O)O)cc1
17.1%	CCCCn1c2ccc(C)cc2c2nnc(SCCN3CCCCC3)nc21
1.4%	COc1cccc(CN2CCN(CC(=O)Nc3ccccc3Cl)CC2)c1
-1.0%	O=C(COC(=O)c1n[nH]c2ccccc12)NCc1ccccc1
6.2%	Cn1c(=O)[nH]c(=O)c2c1nc(NCCCn1ccnc1)n2Cc1ccccc1
-11.2%	CCCCCN(CCCCC)C(=O)[C@H](CCC(=O)O)NC(=O)[C@H](Cc1ccc(OP(=O)(O)O)cc1)NC(C)=O
-5.0%	CCOC(=O)N1CCN(S(=O)(=O)c2ccc(C(=O)Nc3sc4c(c3C(N)=O)CC(C)(C)NC4(C)C)cc2)CC1
-1.4%	Cc1ccc(C(=O)N(C)CC(=O)Nc2ccc(Cl)c(C(F)(F)F)c2)cc1S(=O)(=O)N1CCCCC1
-0.6%	COc1ccc(C(=O)Nc2ccc(S(=O)(=O)N3CCc4ccccc43)cc2)cc1
-1.7%	COC(=O)c1ccc(C)c(NC(=O)Cn2cnc3ccccc3c2=O)c1
4.1%	CC1=CC2=NCC(O)CN2C=C1 (configuration not stated)
-26.2%	CCOC(=O)c1ccc(P(=O)(c2ccccc2)c2ccccc2)cc1
17.7%	CS(=O)(=O)Nc1ccc(N2CCCCC2)c(Cl)c1
-5.2%	C/C(=N\NC(=O)C1CCCN(S(=O)(=O)c2ccccc2)C1)c1ccncc1 (configuration not stated)
-4.0%	CN(CCOc1ccc(Cl)cc1)C(=O)CN1C(=O)NC2(CCCCC2)C1=O

# Pulled by compound from the entries so far, 4 records:
VDR inhibitor	compound
17.7%	CS(=O)(=O)Nc1ccc(N2CCCCC2)c(Cl)c1
4.1%	CC1=CC2=NCC(O)CN2C=C1 (configuration not stated)
-5.2%	C/C(=N\NC(=O)C1CCCN(S(=O)(=O)c2ccccc2)C1)c1ccncc1 (configuration not stated)
-26.2%	CCOC(=O)c1ccc(P(=O)(c2ccccc2)c2ccccc2)cc1

# A portion of the library, so the mix of outcomes need not match the whole.
